V. cholerae QS = Vibrio cholerae quorum sensing activators, luminescence (AID 686977); V. cholerae quorum sensing reporter, luminescence, 6 h; higher luminescence means a stronger effect; most inactives read 0; one-dose luminescence at 50 µM unless noted; EC50 in µM for titrated hits; 9,400 tested, under 10 active;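 active means light above mean plus 3 SD and confirmed in a dose series; inconclusive means above that limit without a clear retest; inactive means below it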;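 further: raw light counts without normalisation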
An asterisk follows results filed as active; ? = inconclusive; [ ] = another dose, or the depositor's remark. Only part of the results is shown. The share of hits here may be higher or lower than overall.

SMILES	V. cholerae QS
CC(C)OC(=O)CSc1nnc(-c2ccccc2)n1N	40
Cn1cccc1Cc1nnc(SCC(=O)Nc2ccccc2F)n1-c1ccc(F)cc1	40
COc1ccc(-c2cc(=O)[nH][nH]2)cc1OC	40
CCOC(=O)C1CCN(C(=O)CN(c2cccc(C(F)(F)F)c2)S(C)(=O)=O)CC1	0
CCC(c1nnnn1CCOC)N1CCN(Cc2ccccc2OC)CC1 (stereo not drawn)	40
CC(C)(C)C(=O)OCOC(=O)[C@@H]1N2C(=O)[C@@H](N=CN3CCCCCC3)[C@H]2SC1(C)C	0[10 µg/mL]
COc1ccccc1NC(=O)Cc1noc(CSc2nnc(C)s2)n1	0
CCN(CC)CCc1nc(-c2ccccc2)no1	0[10 µg/mL]
CCC(Oc1ccccc1)C(=O)Nc1ccccc1OC (stereo not drawn)	0
Cc1nnc(NC(=O)CSc2nnc(CNC(=O)C34CC5CC(CC(C5)C3)C4)n2C2CCCCC2)s1	0
O=C(NCCN1C(=O)C2C3C=CC(C3)C2C1=O)N1CCCCC1 (stereo not drawn)	280
Cc1cccc(N2CCN(C(=O)c3cc4ccccc4oc3=O)CC2)c1C	160
COCCn1c(SCC(=O)Nc2nnc(C)s2)nnc1-c1ccncc1	0
CCCc1nc2oc3c(OCC)ncnc3c2c2c1COC(C)(C)C2	0
COc1ccc(C(C)=O)cc1CN1C(=O)C(C)N(c2ccc(C)cc2)C1=O (stereo not drawn)	0
COc1ccc(CC(C)N2CCN(c3ccccc3)CC2)cc1OC (stereo not drawn)	0
CCc1ccc2c(c1)C(NC(C)=O)C(=O)N2CC (stereo not drawn)	0
COc1cccc(N2CCN(C(=O)CN(C)S(=O)(=O)c3ccc4c(c3)CCC(=O)N4)CC2)c1	0
C=CCC(c1ccccc1F)N(CCN1CCOCC1)C(=O)Nc1cccc(Cl)c1 (stereo not drawn)	0
CCOC(=O)N1CCC(c2cc(=O)n3[nH]c(-c4ccccc4)cc3n2)CC1	40
Cc1ccc2ncnc(NCCCN3CCOCC3)c2c1	0
CCN1CCN(C(=O)C2c3cc(OC)c(OC)cc3C(=O)N3CCc4ccccc4C23)CC1 (stereo not drawn)	40
CCCN1CCN(CCCNC(=O)c2cc3c(=O)n(C)c4ccccc4c3n2C)CC1	0
CC1CCCN(C(C(=O)Nc2ccc(C(C)C)cc2)c2ccc3c(c2)OCO3)C1 (stereo not drawn)	0
Cc1nn(-c2cc(N3CCOCC3)ccc2[N+](=O)[O-])c(=O)c2ccccc12	40
O=C(COC(=O)c1ccc(S(=O)(=O)N2CCc3ccccc3C2)cc1)NC(=O)NCc1ccco1	0
COc1ccc(Cl)cc1C(=O)N(Cc1nc(-c2cccc(C)c2)no1)C(C)C	?
COc1ccc(NC(=O)c2nnn(Cc3cccc(F)c3)c2N)c(OC)c1	?
COc1ccc(C2C(C(=O)c3sc(C)nc3C)=C(O)C(=O)N2CCN(C)C)cc1OC (stereo not drawn)	360
CCc1ccc(NC(=O)N(CCN(C)C)C(C)c2cccnc2)cc1 (stereo not drawn)	0
COC(=O)c1cc(=O)n(Cc2ccc3c(c2)OCO3)c(=Nc2ccc(F)c(Cl)c2)s1	0
COc1cccc(C2CC(c3ccccc3)n3ncnc3N2)c1 (stereo not drawn)	0
CCOc1cc(C2C(C(=O)N3CCOCC3)=C(C)NC3=C2C(=O)CCC3)ccc1O (stereo not drawn)	40
CCOC(=O)Nc1ccc2c(c1)N(C(=O)CCN1CCN(CCO)CC1)c1ccccc1CC2	40
CC(Oc1ccc(Cl)cc1)C(=O)OCC(=O)Nc1ncc(Cl)cc1Cl (stereo not drawn)	0
O=C(O)C(Cc1ccccc1)N1Cc2ccccc2C1=O (stereo not drawn)	0
COCCOC(=O)C(C#N)c1nc2ccccc2nc1N1CCN(Cc2ccccc2)CC1 (stereo not drawn)	400
O=C(NC1CCS(=O)(=O)C1)c1cn(-c2ccccc2)nc1-c1ccccc1 (stereo not drawn)	0
COc1ccc(C(=O)OC2C[C@H]3CC[C@H](C2)N3C)cc1OC (stereo partly drawn)	0[10 µg/mL]
CCC(C)NC(=O)CCS(=O)(=O)c1ccc2c(c1)n(C)c(=O)c(=O)n2C (stereo not drawn)	40
S=c1[nH]c2ncccc2o1	0
COc1c2c(nc3ccccc13)OC(C(C)(O)CO)C2 (stereo not drawn)	0[10 µg/mL]
CCc1cccc(C)c1NC(=O)CN1C(=O)c2ccccc2S1(=O)=O	200
O=C(NCCc1csc(-c2ccccc2)n1)c1cccs1	40
Nc1ccc(S(=O)(=O)Nc2ccc(Cl)nn2)cc1	0[10 µg/mL]
C=CCn1c(SCC(=O)Nc2cc(C)on2)nc2sc(CC)cc2c1=O	40
Cc1nn(Cc2ccc(Cl)cc2)c(=O)n1N(C)c1ncc(C(F)(F)F)cc1Cl	40
C/C(=N\NC(=O)c1ccc(Br)cc1)c1ccccc1	?
Cc1cc(C)nc(N2CCCC(C(=O)NCc3cccc(C(F)(F)F)c3)C2)n1 (stereo not drawn)	0
CCc1cc(N2CCOCC2)cc2c1[nH]c1ccccc12	0
C[C@H](N)c1nnc(SCc2ccc(Cl)cc2Cl)o1	0
Cc1cccc(-c2noc(CN(C(=O)C(c3ccccc3)c3ccccc3)C(C)C)n2)c1	40
O=P(c1ccccc1)(c1ccccc1)C(c1ccco1)N1CCOCC1 (stereo not drawn)	40
CC(=O)OC(C)C[N+](C)(C)C (stereo not drawn)	80[10 µg/mL]
O=C(CCc1ccccc1)Nc1ccc(F)cc1F	40
COc1ccc(-n2c(SCC(=O)Nc3sc4c(c3C#N)CCCC4)nnc2-c2ccc(O)cc2)cc1	0
Cc1ccc(N2C(=O)c3ccccc3C2Nc2ccccc2F)nc1 (stereo not drawn)	0
COc1cccc(C(=O)Nc2nnc(-c3cccs3)o2)c1	?
NCC(CC(=O)O)c1ccc(Cl)cc1 (stereo not drawn)	0[10 µg/mL]
CCOC(=O)C1CCN(C(=O)c2cc3c(-c4ccc(OC)c(OC)c4)nn(C)c3s2)CC1	40

More records:
SMILES	V. cholerae QS
COc1ccc(-c2nc(-c3ccc(Br)o3)no2)cc1OC	0
CCC(=O)Nc1c2c(nn1-c1ccc(F)cc1)CS(=O)C2 (stereo not drawn)	0
O=C(CCS(=O)(=O)Cc1ccccc1)Nc1nc2c(s1)CCCC2	0
OC(CCCN1CCCCC1)(c1ccccc1)c1ccccc1	40[10 µg/mL]
COc1cccc(N2C(N)=NC(N)=NC2(C)C)c1	0
CCOC(=O)N1CCN(C(=O)CCCn2nc(C)c3sc4ccccc4c3c2=O)CC1	0
CCN(C(=O)CSc1nnc(Cc2ccccc2F)n1N)C1CCS(=O)(=O)C1 (stereo not drawn)	0
NC(=O)c1cc2cc(Br)ccc2oc1=NCc1ccccc1	0
COc1cccc(N2CCN(C(=O)C3CCCN(S(=O)(=O)c4cnc[nH]4)C3)CC2)c1 (stereo not drawn)	0
Cc1noc(-c2ccccc2OC(=O)c2ccccc2)n1	360
O=C(NCc1cccnc1)c1cnn2ccccc12	0
Cc1nn(C)c(C)c1S(=O)(=O)N(CC(=O)Nc1ccccn1)c1ccc(C(C)C)cc1	0
CCCN(CCC)C(=S)NC(=O)c1ccc(Cl)cc1Cl	0
CCCC(C(=O)OCCN(CC)CC)(c1ccccc1)c1ccccc1	0[10 µg/mL]
CC(=O)N1CN(C2CCCC2)Cc2c1sc1c2CCCC1	40
COC(=O)Nc1nc2ccc(Sc3ccccc3)cc2[nH]1	240[10 µg/mL]
CCOC(=O)C1CCCN(c2nc3ccccc3nc2C(C#N)C(=O)OCCOC)C1 (stereo not drawn)	280
O=C(Nc1ccc(N2CCOCC2)c(Cl)c1)c1ccccc1F	40
COC(=O)C1=C(C)NC(C)=C(C(=O)OC(C)C)C1c1cccc2nonc12 (stereo not drawn)	0[10 µg/mL]
c1ccn2cc(CSC3=NCCS3)nc2c1	40
COC(=O)CCS(=O)(=O)c1nc(-c2ccccc2)cc(C(F)(F)F)n1	240
CCOC(=O)N1CCC(NC(=O)c2cccc3c2C(=O)N(c2ccc(OC)cc2)C3)CC1	40
CCCCN(Cc1ccccc1)c1ncnc2nc[nH]c12	0
CC(=O)Nc1ccc(N=Cc2ccc[nH]2)cc1	40

Entries above containing an aryl thioether with sulfur outside any ring:
SMILES	V. cholerae QS
CC(C)OC(=O)CSc1nnc(-c2ccccc2)n1N	40
Cn1cccc1Cc1nnc(SCC(=O)Nc2ccccc2F)n1-c1ccc(F)cc1	40
COc1ccccc1NC(=O)Cc1noc(CSc2nnc(C)s2)n1	0
Cc1nnc(NC(=O)CSc2nnc(CNC(=O)C34CC5CC(CC(C5)C3)C4)n2C2CCCCC2)s1	0
COCCn1c(SCC(=O)Nc2nnc(C)s2)nnc1-c1ccncc1	0
C=CCn1c(SCC(=O)Nc2cc(C)on2)nc2sc(CC)cc2c1=O	40
C[C@H](N)c1nnc(SCc2ccc(Cl)cc2Cl)o1	0
COc1ccc(-n2c(SCC(=O)Nc3sc4c(c3C#N)CCCC4)nnc2-c2ccc(O)cc2)cc1	0
CCN(C(=O)CSc1nnc(Cc2ccccc2F)n1N)C1CCS(=O)(=O)C1 (stereo not drawn)	0
COC(=O)Nc1nc2ccc(Sc3ccccc3)cc2[nH]1	240[10 µg/mL]

A second format for some results above.
CC(=O)N1CN(C2CCCC2)Cc2c1sc1c2CCCC1
- V. cholerae QS: 40

CC(=O)Nc1ccc(N=Cc2ccc[nH]2)cc1
- V. cholerae QS: 40

CCOC(=O)N1CCC(NC(=O)c2cccc3c2C(=O)N(c2ccc(OC)cc2)C3)CC1
- V. cholerae QS: 40

(cont.)
SMILES	V. cholerae QS
CCCSC1=C(C#N)C(c2ccccc2OCC)CC(=O)N1 (stereo not drawn)	0
CCOC(=O)c1cc2n(n1)C(C(F)(F)F)CC(C)N2 (stereo not drawn)	0
COc1ccccc1NC(=O)N(C1CCCC1)C1CCN(C(C)=O)CC1	0
COc1ccccc1C(=O)Nc1ccc2c(c1)nc(CN1CCN(C(C)=O)CC1)n2C	40
Nc1nnnn1/N=C/c1ccccc1OCc1ccccc1	0
CC1(C)CC(=O)C2=C(C1)NC(=O)CC2c1ccccc1F (stereo not drawn)	0
CS(=N)(=O)CC[C@H](N)C(=O)O (stereo partly drawn)	40[10 µg/mL]
Cc1cc(C)cc(N(CC(=O)NCC2CCCO2)S(=O)(=O)c2c(C)noc2C)c1 (stereo not drawn)	40
CCCN(CCC)C(=O)C1CCN(c2cc(C)nc3c(-c4ccc(OC)c(OC)c4)c(C)nn23)CC1	0
CC(C)(C)SCCNC(=O)COc1ccc(Cl)cc1	0
CCOC(=O)c1sc(C(=O)OCC)c(OCCO)c1OCCO	40
Cc1cc(C)c(NC(=O)c2ccc(S(=O)(=O)N3CCOCC3)cc2)c(C)c1	40
CSc1ccc(CCNC(=O)C2CCN(c3nnc(-n4cccc4)s3)CC2)cc1	40
Cc1noc(/C=C/N(C)C)c1S(=O)(=O)N1CCCC(C(=O)NCc2ccc(Cl)cc2)C1 (stereo not drawn)	0
O=C1OC2(c3cc(Br)c(O)cc3Oc3c2cc(Br)c(O)[c]3[Hg])c2ccccc21 (stereo not drawn)	0[10 µg/mL]
COCCNC(=O)CSc1nc2nc(C)cc(C)n2n1	0
COc1cc(N2CCCC2)c(OC)cc1/C=C(/C#N)c1cccc(Br)c1	40
COc1ccc(CCN2C(=O)CC(NCCc3ccc(S(N)(=O)=O)cc3)C2=O)cc1OC (stereo not drawn)	0
CC(C)Sc1nnc(-c2c[nH]c3ccccc23)n1C	0
Cc1cc(NC(=O)C2CCCN(S(=O)(=O)c3cnc[nH]3)C2)ccc1Br (stereo not drawn)	0
COc1ccccc1/C=C/C1=NC(=C\N(C)C)/C(=O)O1	40
COc1ccc(Cn2nnnc2C(C(C)C)N(Cc2ccco2)Cc2cccs2)cc1 (stereo not drawn)	40
O=C1C2CCCN2C(c2ccccc2F)N1c1cccc(Cl)c1 (stereo not drawn)	0
Cc1ccc(N2C=Nc3ccc(C)c4nc(C)cc2c34)cc1	0
COc1ccc(CCn2c(O)c(C=NCCN3CCCCC3)c(=O)[nH]c2=O)cc1OC	0
C=CCn1c(CCC(=O)O)ccc1-c1ccc(OC)cc1	0
CSc1nnc(Cn2c(=O)sc3ccccc32)n1-c1ccccc1	40
CC(C)c1nc2n[nH]c(N)c2c2c1CSC(C)(C)C2	0
Oc1c(C=Nc2cccc3nsnc23)ccc2ccccc12	0
C#C[C@]1(O)CC[C@H]2[C@@H]3CCC4=Cc5oncc5C[C@]4(C)[C@H]3CC[C@@]21C	0[10 µg/mL]
CC(C)(C)C(=O)OCOC(=O)[C@@H]1N2C(=O)[C@@H](NC(=O)[C@H](N)c3ccccc3)[C@H]2SC1(C)C	40[10 µg/mL]
COc1c2occc2cc2ccc(=O)oc12	80[10 µg/mL]
CCOC(=O)C(=CNc1cc(C)nn1-c1ccc(Cl)cc1)C(=O)OCC	40
CC(C)(C)NCC(O)c1cc(Cl)c(N)c(Cl)c1 (stereo not drawn)	0[10 µg/mL]
CCC(=O)Nc1ccc(C(=O)n2ccc(C)n2)cc1	0
O=C1CN(c2nc3ccccc3n3cnnc23)CC(=O)N1CCc1ccccc1	40
C/C(=N/Nc1nc(-c2ccc(Cl)cc2)cs1)c1cccs1	40
COC(=O)c1ccccc1NC1c2ccccc2C(=O)N1c1cccnc1 (stereo not drawn)	0
Cc1cccc(NC(=O)Cc2coc3ccc4ccccc4c23)n1	0
N#CCCn1cc(/C=C(\C#N)c2nc3ccccc3s2)c(-c2ccc(F)cc2)n1	40
CN(C)CCNC(=O)CN1C(=O)COc2ccc(C(C)(C)C)cc21	0
Cn1c(=O)c2c(nc(Sc3n[nH]c(N)n3)n2Cc2ccccc2Cl)n(C)c1=O	0
COc1ccc2c(c1OC)C(=O)O[C@@H]2[C@H]1c2cc3c(cc2CCN1C)OCO3	0[10 µg/mL]

Screening data from PubChem.
